Compound activity: PubChem BioAssay, Broad Institute
AF4-AF9 inh: inhibitors of human MLL-AF4/AF9 interaction; AlphaScreen, biotin-AF4 peptide binding to FLAG-AF9; inhibition, % at 10 µM; hit rate 0.47% among 350,000;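 active means every replicate reaching a set inhibition limit, whatever the replicate mean, cut at about 25% in these data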;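 further: 0% = plate neutral control median and 100% = total signal loss; the record names both 10 and 1 µM as test concentration; the first replicate is given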
Target sequence (P42568 whole entry, looked up): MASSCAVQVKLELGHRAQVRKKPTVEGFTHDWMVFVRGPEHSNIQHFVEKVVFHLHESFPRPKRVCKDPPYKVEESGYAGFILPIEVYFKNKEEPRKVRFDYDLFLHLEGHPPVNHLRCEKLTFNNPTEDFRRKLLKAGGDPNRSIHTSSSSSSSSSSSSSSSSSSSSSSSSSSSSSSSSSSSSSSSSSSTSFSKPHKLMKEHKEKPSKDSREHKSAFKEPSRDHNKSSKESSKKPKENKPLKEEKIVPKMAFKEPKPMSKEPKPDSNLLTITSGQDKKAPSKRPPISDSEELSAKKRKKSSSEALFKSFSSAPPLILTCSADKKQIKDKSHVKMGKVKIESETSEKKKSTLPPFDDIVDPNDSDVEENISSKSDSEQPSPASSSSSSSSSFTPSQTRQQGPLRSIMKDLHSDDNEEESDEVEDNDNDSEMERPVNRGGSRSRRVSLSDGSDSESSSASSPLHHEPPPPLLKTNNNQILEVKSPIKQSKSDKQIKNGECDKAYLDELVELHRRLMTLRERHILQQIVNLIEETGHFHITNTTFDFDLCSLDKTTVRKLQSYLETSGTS
Ecoli rRNA inh: inhibitors of bacterial rRNA selective over humanized ribosomes | E. coli WT GFP vs humanized-ribosome RFP mutants, fluorescence, 24 h; hits give low values; DMSO median 0, no signal -100 | GFP signal change (wild-type ribosome), % (concentration not given with the values) | hit rate 1.6% among 350,000;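 active means significant combined selectivity score with lowered wild-type GFP, culture density cut under 30%, mutant RFP and density less affected; inactive means any of these conditions unmet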; further: one replicate is shown; some compounds called inactive have numbers as strong as hits
Ecoli rRNA inh OD600: recorded beside Ecoli rRNA inh, whose call it bears; OD600 change, %; measured here: OD600 growth;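 optical density of the mix in the first replicate; 0 = DMSO median and -100 = no signal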
Ecoli rRNA inh RFP: further read-out of Ecoli rRNA inh, marked with its call; RFP signal change, %; measured here: RFP humanized mutant strains;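 first replicate; 0 = DMSO median and -100 = no signal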
* hit, by the source's call. Only part of the results is shown, so the mix of outcomes need not match the whole.

AF4-AF9 inh	Ecoli rRNA inh	Ecoli rRNA inh OD600	canonical_smiles	Ecoli rRNA inh RFP
0.2	-3	-13	COc1ccc(S(=O)(=O)Nc2ccc3c(c2)CC(=O)N([C@@H](C)CO)C[C@H](C)[C@H](CN(C)S(=O)(=O)c2cccs2)O3)cc1	0.1
-11	3	5	CN(C)C(=O)c1ccc(-c2ccccc2[C@@H]2[C@H](C#N)N(C(=O)C3CC3)[C@H]2CO)cc1	0.5
2.8	3	-2	COc1ccc(NC(=O)C2Cc3c(-c4ccc5c(c4)OCO5)ccnc3O2)cn1 (configuration not stated)	-0.5
-3.3	1	0	C[C@@H]1CN([C@@H](C)CO)C(=O)c2cccc(N(C)C)c2O[C@@H]1CN(C)S(=O)(=O)c1cn(C)cn1	-5.2
1.9	1	3	CN1C(=O)c2cc(NC(=O)Nc3cccc(Cl)c3)ccc2OC[C@@H]2O[C@@H](CC(=O)O)CC[C@@H]21	-0.7
-0.4	9	11	C[C@H](CO)N1C[C@H](C)[C@@H](CN(C)C(=O)c2ccccc2F)Oc2ncc(-c3cncnc3)cc2C1=O	-1.6
-8.5	-5	-7	COC(=O)[C@@H]1[C@@H](CO)[C@@H]2Cn3c(ccc(-c4ccccc4F)c3=O)[C@@H]2N1Cc1ccccc1	-2.7
-0.6	-1	5	CC(C)NC(=O)Nc1ccc2c(c1)CC(=O)N([C@H](C)CO)C[C@@H](C)[C@H](CN(C)C)O2	0.0
0.7	1	-5	CC(C)NC(=O)Nc1ccc2c(c1)C(=O)N([C@@H](C)CO)C[C@@H](C)[C@@H](CN(C)C(=O)CCCN(C)C)OCCCC[C@H](C)O2	-2.9
-5.2	1	0	O=C(c1ccc2c(c1)OCO2)N1CC2(C1)[C@@H](c1ccccc1)[C@@H](CO)N2C(=O)C1CC1	-2.5
2.9	0	-1	COc1ccc(NC(=O)Nc2ccc3c(c2)C(=O)N([C@@H](C)CO)C[C@H](C)[C@@H](CN(C)Cc2ccc(Cl)c(Cl)c2)O3)cc1	3.1
3.0	5	2	O=C(C[C@@H]1CC[C@H]2[C@@H](COC[C@H](O)CN2C(=O)Cc2ccccc2)O1)NC1Cc2ccccc2C1	-2.1
0.4	-1	2	O=C(C[C@@H]1CC[C@H](NC(=O)Nc2ccc3c(c2)OCO3)[C@H](CO)O1)NCc1ccc2c(c1)OCO2	-1.3
1.5	-2	-1	C[C@@H]1CN([C@@H](C)CO)C(=O)Cc2cc(NC(=O)C3CC3)ccc2O[C@H]1CN(C)Cc1ccc(C(=O)Nc2ccccc2N)cc1	-2.1
12	-1	6	C[C@H](CO)N1C[C@H](C)[C@H](CN(C)C(=O)[C@@H](Cc2ccccc2)N(C)C)OCc2ccccc2-c2c(n(C)c3ccccc23)C1=O	1.1
-4.4	4	1	CC(C)NC(=O)N(C)C[C@H]1Oc2c(NC(=O)Nc3ccc(F)cc3)cccc2C(=O)N([C@H](C)CO)C[C@@H]1C	0.8
1.0	-3	2	C[C@@H]1CN([C@@H](C)CO)C(=O)Cc2cc(NC(=O)CCN3CCOCC3)ccc2O[C@@H]1CN(C)Cc1ccncc1	-2.5
-3.1	-2	2	CN1CCCCN2[C@H](CO)[C@@H](c3ccc(-c4ccc(F)cc4)cc3)[C@@H]2C1	0.1
0.8	-1	0	CCN(CC(=O)Nc1ccc(NC(C)=O)cc1)C(=O)c1ccc(N(C)S(=O)(=O)c2ccc(C)cc2)cc1	1.1
5.6	-3	-8	NC(Cc1ccc(Cl)cc1)c1csc(Nc2ccc(C(=O)NCCCO)cn2)n1 (configuration not stated)	0.1
10	-1	8	C[C@@H]1CCCCO[C@@H](CN(C)C(=O)c2ccncc2)[C@@H](C)CN([C@H](C)CO)C(=O)c2cc(NC(=O)CCCCCC(=O)Nc3ccccc3N)ccc2O1	-1.3
-0.5	2	4	C[C@@H]1CCCCO[C@H](CN(C)CC2CC2)[C@@H](C)CN([C@H](C)CO)C(=O)c2cc(NS(=O)(=O)c3ccccc3)ccc2O1	-1.0
0.0	0	-8	O=C(Nc1cc(F)ccc1F)N[C@H]1CC[C@H](CCn2cc(C3CC3)nn2)O[C@H]1CO	-1.5
2.0	6	19	COc1ccc(-c2nc3c4ccccc4ccn3c2Cc2ccccc2)cc1OC	21
-0.8	-7	-24	CN1c2ccc(-c3cccc(F)c3)cc2[C@H]2[C@H](CCN2C(=O)c2ccccc2F)[C@@H]1CO	9.2
-2.4	-1	1	O=C(C1CCCC1)N1CC(=O)N2[C@@H](CO)[C@@H](c3ccc(Br)cc3)[C@@H]2C1	-2.4
-4.8	-1	9	CC(=O)N(C)C[C@@H]1Oc2cc(Br)ccc2S(=O)(=O)N([C@@H](C)CO)C[C@H]1C	-3.7
-0.4	1	13	O=C(NC1CC1)c1ccc(-c2ccc3nccn3c2)cc1	-3.0
0.3	-3	-18	COc1cc2c(cc1OC)CN(C(=O)c1cc(COc3ccccc3SC)on1)CC2	-5.5
-2.2	4	10	C[C@H]1CN([C@@H](C)CO)C(=O)c2cc(-c3cccnc3)cnc2O[C@@H]1CN(C)C(=O)c1ccccc1F	-0.8
0.0	-15	-41	N#C[C@@H]1[C@H](c2ccc(C#CC3CCCC3)cc2)[C@@H](CO)N1S(=O)(=O)c1ccccc1	33
-2.7	3	7	CC(CC(=O)Nc1ccc2c(c1)c(=O)n(C)n2Cc1ccc(F)cc1)c1ccccc1 (configuration not stated)	3.2
0.4	0	-3	C[C@H]1CN([C@@H](C)CO)C(=O)c2cccc(NC(=O)c3ccc(-c4nccs4)cc3)c2O[C@@H]1CN(C)S(=O)(=O)c1ccc(Cl)cc1	-0.6
-2.4	3	9	CCCNC(=O)N1CC2(C1)[C@@H](c1ccccc1)[C@H](CO)N2C(=O)C1CCCC1	-3.6
-0.3	1	5	COc1ccc(NC(=O)Nc2ccc3c(c2)C(=O)N([C@H](C)CO)C[C@H](C)[C@H](CN(C)C(=O)Nc2c(C)noc2C)OCCCC[C@H](C)O3)cc1	0.0
1.3	1	5	C[C@H](CO)N1C[C@H](C)[C@H](CN(C)C(=O)Cc2ccccn2)Oc2ncc(-c3ccccc3)cc2C1=O	-1.0

Individual results from the list.
Ecoli rRNA inh RFP with O=C(NC1CC1)c1ccc(-c2ccc3nccn3c2)cc1 → -3.0
Ecoli rRNA inh OD600 with C[C@H]1CN([C@@H](C)CO)C(=O)c2cc(-c3cccnc3)cnc2O[C@@H]1CN(C)C(=O)c1ccccc1F → 10
AF4-AF9 inh with CCCNC(=O)N1CC2(C1)[C@@H](c1ccccc1)[C@H](CO)N2C(=O)C1CCCC1 → -2.4
Ecoli rRNA inh with O=C(C1CCCC1)N1CC(=O)N2[C@@H](CO)[C@@H](c3ccc(Br)cc3)[C@@H]2C1 → -1

(cont.)
AF4-AF9 inh	Ecoli rRNA inh	Ecoli rRNA inh OD600	canonical_smiles	Ecoli rRNA inh RFP
-3.6	-1	-4	O=C(C[C@H]1CC[C@@H]2[C@H](COC[C@@H](O)CN2CC2CCCC2)O1)NCc1ccc(Cl)cc1	-3.0
-4.2	-7	-22	CC1(C(=O)NCCC(F)(F)F)Cc2c(-c3cccc(C(F)(F)F)c3)ccnc2O1 (configuration not stated)	-3.8
-0.5	1	7	C[C@H]1CN([C@@H](C)CO)C(=O)Cc2cc(NC(=O)Cn3cnnn3)ccc2O[C@H]1CN(C)C(=O)Nc1ccc(C(F)(F)F)cc1	-1.1
0.4	12	18	CC1(C(=O)NS(=O)(=O)C2CC2)CCCN(C(=O)c2cccc(Cl)c2)C1 (configuration not stated)	0.4
-0.3	1	7	CC(C)NC(=O)N(C)C[C@H]1Oc2ccc(NC(=O)C3CC3)cc2C(=O)N([C@@H](C)CO)C[C@@H]1C	0.8
-4.1	-2	-4	COc1cccc(S(=O)(=O)Nc2ccc3c(c2)C(=O)N(C)[C@@H]2CC[C@@H](CC(=O)NCC4CCCCC4)O[C@H]2CO3)c1	5.0
-1.2	-5	-12	COC(=O)c1ccc2nc(-c3ccc(Cl)cc3)c(Cc3ccccc3)n2c1	4.6
-1.3	0	5	O=C(Nc1cc(F)ccc1F)N1CC(=O)N2[C@H](CO)[C@H](c3ccc(-c4cccnc4)cc3)[C@@H]2C1	-2.1
-0.7	1	2	CN(C)C(=O)C[C@@H]1CC[C@@H]2[C@H](COC[C@H](O)CN2CC2CCCCC2)O1	-1.3
-0.1	-1	2	C[C@@H]1CN([C@@H](C)CO)C(=O)c2cc(NC(=O)Nc3ccc4c(c3)OCO4)ccc2O[C@@H]1CN(C)Cc1ccc(C(=O)O)cc1	-0.9
-2.1	-5	-4	Cc1ccc(S(=O)(=O)N(C)C[C@@H]2Oc3ncc(-c4ccncc4)cc3C(=O)N([C@H](C)CO)C[C@H]2C)cc1	-1.1
-8.6	3	7	C[C@@H]1CN([C@@H](C)CO)C(=O)c2cc(N(C)C)ccc2O[C@@H]1CN(C)C(=O)Nc1ccc(F)cc1	-2.0
-2.8	6	2	C[C@H](CO)N1C[C@H](C)[C@@H](CN(C)C)Oc2ncc(-c3ccncc3)cc2C1=O	-0.9
0.1	-11	-14	C[C@@H]1CN([C@H](C)CO)C(=O)c2cccc(NC(=O)Nc3ccccc3)c2O[C@@H]1CN(C)Cc1ccc(C(F)(F)F)cc1	1.4
0.0	-1	-3	Cc1noc(C)c1NC(=O)Nc1ccc2c(c1)CC(=O)N([C@@H](C)CO)C[C@H](C)[C@H](CN(C)Cc1ccc3c(c1)OCO3)O2	-0.1
0.3	-3	11	O=C(Nc1ccc(F)c(Cl)c1)c1csc([C@@H]2C[C@H](O)[C@@H](CO)O2)n1	1.8
-1.7	1	3	CCC(=O)N1C[C@H](C)[C@@H](OC)CN(C)C(=O)c2cc(NC(=O)c3cnccn3)ccc2OC[C@H]1C	-1.6
0.1	-1	0	C[C@H](NC(=O)C[C@@H]1CC[C@@H](NC(=O)Cc2ccccn2)[C@@H](CO)O1)c1ccccc1	0.9
-3.1	3	9	CCOC(=O)c1ccc(S(=O)(=O)N2CCN(C(=O)c3cccc(S(=O)(=O)N4CC(C)OC(C)C4)c3)CC2)cc1 (configuration not stated)	4.1
-3.4	4	1	c1ccc(CN2[C@@H]3CNC[C@H]2C3c2ccc(-c3ccncc3)cc2)nc1 (some centres not stated)	-5.7
1.1	1	0	CS(=O)(=O)N1CC(=O)N2[C@H](CO)[C@H](c3ccc(C#CC4CCCC4)cc3)[C@@H]2C1	0.9
3.5	-4	-9	CCCNC(=O)[C@H]1[C@H](CO)[C@H]2Cn3c(ccc(C4=CCCC4)c3=O)[C@H]2N1Cc1ccccc1	3.8
1.8	-3	-3	C[C@H]1CN([C@@H](C)CO)C(=O)c2cc(NC(=O)Cc3ccccc3)ccc2O[C@H]1CN(C)Cc1ccc(C(=O)Nc2ccccc2N)cc1	-3.3
-5.5	-4	24	CC(C)C#Cc1ccc([C@@H]2[C@H]3CN(C(=O)c4ccc(F)cc4)CCCCN3[C@H]2CO)cc1	-3.3
-2.5	0	3	C[C@@H]1CN([C@@H](C)CO)C(=O)c2cc(NC(=O)c3ccncc3)ccc2O[C@@H]1CN(C)C(=O)NC1CCCCC1	0.4
1.6	-4	-12	COc1ccc(CN(C)C[C@@H]2Oc3ccc(NC(=O)NC4CCCCC4)cc3CC(=O)N([C@@H](C)CO)C[C@@H]2C)cc1	2.9
15	1	-25	CN1CCN(C(=O)C[C@H]2C[C@@H]3c4cc(NC(=O)Nc5ccc(C(F)(F)F)cc5)ccc4O[C@@H]3[C@@H](CO)O2)CC1	9.0
-3.3	-2	9	Cc1noc(C)c1NC(=O)N(C)C[C@@H]1Oc2ccc(NC(=O)NC3CCCCC3)cc2C(=O)N([C@H](C)CO)C[C@@H]1C	0.5
0.5	3	1	CO[C@@H]1CN(C)C(=O)c2cc(NC(C)=O)ccc2OC[C@H](C)N(C(=O)c2cnccn2)C[C@H]1C	-1.8
-1.9	1	-3	CO[C@@H]1CN(C)C(=O)c2ccc(NS(C)(=O)=O)cc2OC[C@@H](C)N(C(=O)CC2CC2)C[C@@H]1C	-0.1

Among those listed so far, these have two or more sulfur atoms.
AF4-AF9 inh	Ecoli rRNA inh	Ecoli rRNA inh OD600	canonical_smiles	Ecoli rRNA inh RFP
0.2	-3	-13	COc1ccc(S(=O)(=O)Nc2ccc3c(c2)CC(=O)N([C@@H](C)CO)C[C@H](C)[C@H](CN(C)S(=O)(=O)c2cccs2)O3)cc1	0.1
0.4	0	-3	C[C@H]1CN([C@@H](C)CO)C(=O)c2cccc(NC(=O)c3ccc(-c4nccs4)cc3)c2O[C@@H]1CN(C)S(=O)(=O)c1ccc(Cl)cc1	-0.6
-3.1	3	9	CCOC(=O)c1ccc(S(=O)(=O)N2CCN(C(=O)c3cccc(S(=O)(=O)N4CC(C)OC(C)C4)c3)CC2)cc1 (configuration not stated)	4.1

Reprinted at random: 2 records from the list, in no set order.
AF4-AF9 inh	Ecoli rRNA inh	Ecoli rRNA inh OD600	canonical_smiles	Ecoli rRNA inh RFP
-3.1	3	9	CCOC(=O)c1ccc(S(=O)(=O)N2CCN(C(=O)c3cccc(S(=O)(=O)N4CC(C)OC(C)C4)c3)CC2)cc1 (configuration not stated)	4.1
-1.2	-5	-12	COC(=O)c1ccc2nc(-c3ccc(Cl)cc3)c(Cc3ccccc3)n2c1	4.6
